High-throughput results from PubChem BioAssay.
KCNQ2 pot: enhances the rat KCNQ2 potassium channel; CHO-K1 KCNQ2, FluxOR thallium flux fluorescence; stronger effect = higher value; O88943; B-score at 10 µM; hit rate 0.54% among 310,000;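 active = fluorescence ratio B-score at least 3 SD of library B-scores, with initial fluorescence B-score within 3 SD, cut at about 5.3 in these data; same plate scores as AID 2156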;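 note: B-score of peak minus minimum over baseline fluorescence ratio after K+ and Tl+ stimulus; positive B-score means potentiation of KCNQ2 with more thallium influx and brighter signal; only the inactives scoring about 0 or higher are listed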
Target sequence (O88943 whole entry, looked up): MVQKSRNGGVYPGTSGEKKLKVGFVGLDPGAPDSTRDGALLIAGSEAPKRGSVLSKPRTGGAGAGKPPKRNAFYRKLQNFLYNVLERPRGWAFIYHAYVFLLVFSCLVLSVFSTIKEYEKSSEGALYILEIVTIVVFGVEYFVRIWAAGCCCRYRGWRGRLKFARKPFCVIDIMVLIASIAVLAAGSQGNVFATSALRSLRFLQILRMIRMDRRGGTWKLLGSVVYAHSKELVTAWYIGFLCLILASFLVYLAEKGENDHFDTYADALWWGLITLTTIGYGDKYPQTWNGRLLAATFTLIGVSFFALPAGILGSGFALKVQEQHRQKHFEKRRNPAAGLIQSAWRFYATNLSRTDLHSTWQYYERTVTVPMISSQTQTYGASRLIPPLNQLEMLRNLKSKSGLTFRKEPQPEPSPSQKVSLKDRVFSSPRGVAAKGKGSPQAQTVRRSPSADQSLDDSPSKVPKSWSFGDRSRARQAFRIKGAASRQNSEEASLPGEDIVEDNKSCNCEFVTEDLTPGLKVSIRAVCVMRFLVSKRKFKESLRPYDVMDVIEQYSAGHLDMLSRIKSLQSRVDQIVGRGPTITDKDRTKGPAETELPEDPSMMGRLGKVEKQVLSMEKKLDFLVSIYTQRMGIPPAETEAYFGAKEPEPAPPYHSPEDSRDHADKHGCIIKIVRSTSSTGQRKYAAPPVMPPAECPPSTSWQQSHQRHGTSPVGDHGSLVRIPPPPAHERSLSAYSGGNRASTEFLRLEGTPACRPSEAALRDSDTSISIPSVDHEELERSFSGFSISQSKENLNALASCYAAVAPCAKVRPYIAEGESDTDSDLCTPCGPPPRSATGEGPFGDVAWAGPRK
KCNQ2 pot baseline: second read-out of KCNQ2 pot, no call of its own (marks repeat the call); B-score; compound at 10 µM; measured here: initial fluorescence intensity artifact check;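 brightness before thallium and not channel activity; 0 = typical well and far values either way flag optical interference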
The depositor's hits bear a star. Not all compounds are listed, so the mix of outcomes need not match the whole.

SMILES	KCNQ2 pot	KCNQ2 pot baseline
Cc1cc(Cl)c(S(=O)(=O)Nc2cc(S(=O)(=O)N3CCOCC3)ccc2F)cc1OCC(N)=O	0.29	-0.3
O=c1c2sccc2nc(SCc2cc(=O)n3cc(Br)ccc3n2)n1Cc1ccccn1	0.13	1.2
COc1cccc(Nc2ncnc3nc[nH]c23)c1	0.12	0.8
COc1cccc(-c2nc(CCl)cs2)c1	0.02	-2.2
COC(=O)C1=C(C)NC(=O)/C1=C/c1ccc(CNS(=O)(=O)c2ccc(C)cc2)o1	0.6	1.4
CCN1CC2([N+](=O)[O-])CC=C(OC)C([N+](=O)[O-])(C1)C2 (stereo not given)	0.59	0.26
CCn1cc(/C=C(\NC(=O)c2ccc(OC)c(OC)c2)C(=O)NCCN2CCOCC2)c2ccccc21	0.94	-0.21
CN(C)c1ccc(NC(=O)c2cnsn2)cc1	0.41	-0.06
CC1CCN(c2c(NCC3CCC(C(=O)NCCc4ccccc4)CC3)c(=O)c2=O)CC1 (stereo not given)	0.42	1.3
CN(C)S(=O)(=O)c1ccc(Nc2nc(C3CC3)nc3c2nnn3Cc2ccccc2Cl)cc1	0.33	1.4
CC(=O)Nc1cccc(NC(=O)c2ccc3c(c2)CCN3S(C)(=O)=O)c1	0.08	-2.4
O=C(CSc1nc(=O)n2ccccc2n1)OCc1ccccc1	1.6	-0.09
COC(=O)c1ccc(NC(=O)C(=O)N2CCN(C(=S)Nc3ccccc3OC)CC2)cc1	0.41	0.16
CCOC(=O)C1(Cc2cccc(OC)c2)CCCN(Cc2cc(OC)c(O)c(OC)c2)C1 (stereo not given)	0.43	1.7
Cc1ccc(C(=O)Nc2c(-c3cccs3)nc3cc(C)ccn23)cc1	0.53	1
CCn1c(CN2CCN(c3cccc(C)c3C)CC2)n[nH]c1=S	0.4	-0.79
COC(=O)c1ccc(CSc2ncn[nH]2)o1	0.6	1.6
O=C(Nc1ccc2sc3ccccc3c(=O)c2c1)c1ccccc1Cl	0.29	-0.29
O=C1/C(=C/c2ccc(O)cc2)CCc2ccc([N+](=O)[O-])cc21	0.3	0.29
COc1cccc(CN2CCC(n3nccc3NC(=O)CCOc3ccccc3)CC2)c1	0.3	2
O=C(Cc1ccccc1)NCC(=O)N1CCCCCC1	1.1	-0.75
COC(=O)c1ccc(C)c(-n2c(=O)n(Cc3ccccc3)c(=O)c3[nH]cnc32)c1	0.08	0.84
COc1ccc(CNC(=O)c2cc(S(=O)(=O)N3CCCC3)cn2C)cc1	0.01	0.02
CN(c1ccc(C(=O)NCCSC(C)(C)C)cc1)S(C)(=O)=O	0.22	0.09
CCOc1ccc(CC(=O)Nc2ccc(-c3ccc4nnc(C)n4n3)cc2)cc1	0.49	-0.82
CCOC(=O)c1cccc(NC(=O)CS(=O)(=O)Cc2nc(-c3cccc(OC)c3)oc2C)c1	0.02	1.8
CCC(C)NC(=O)CSc1nnc(-c2ccncc2)n1-c1ccc(OC)cc1 (stereo not given)	1.9	-1.6
Cc1cccc(CN2CCN(Cc3cnn(-c4ccccc4F)c3)CC2CCO)n1 (stereo not given)	0.03	-1.1
CN(CC(=O)NCc1ccccc1)Cc1cccc(F)c1	0.88	0.82
CC1CCCCN1C(=O)CN1C(=O)c2ccccc2S1(=O)=O (stereo not given)	0.01	0.62
COc1cccc(C(=O)NNC(=O)c2ccccc2Br)c1	1.3	-0.19
CN(Cc1ccccc1)C(=O)C1CCN(S(=O)(=O)c2cc([N+](=O)[O-])ccc2Cl)CC1	0.05	-2.2
Cc1ccc(C)c(S(=O)(=O)N2CCN(C(=O)CCc3nc4ccccc4c(=O)[nH]3)CC2)c1	0.02	-0.36
CCOC(=O)Cn1nc(C)c(NC(=O)COc2cccc(Cl)c2)c1C	0.19	-1.8
COCCSc1nc2c(c(=O)[nH]c(=O)n2C)n1CCCc1ccccc1	1.2	-1.4
COc1ccc(CCNC(=O)CSc2nnnn2-c2ccccc2OC)cc1OC	0.22	-3.7
COC(=O)c1[nH]c(C)c(/C(O)=C2\C(=O)C(=O)N(CCCN3CCOCC3)C2c2ccccn2)c1C (stereo not given)	1.4	-1.1
Cc1c(CCOC(=O)c2cc([N+](=O)[O-])cc([N+](=O)[O-])c2)sc[n+]1CC(=O)c1ccc(Br)cc1	0.05	-1.3
COCCNC(=S)Nc1cc(OC)c(OC)cc1C#N	0.39	0.25
O=C(CCN1C(=O)c2ccccc2C1=O)N1CCN(C(=O)c2ccccc2)CC1	1.1	0.18
CC(=O)c1cccc(NC(=O)CSc2nnc(-c3cccnc3)o2)c1	0.14	-0.62
O=C(Nc1nccs1)C(Br)C(Br)c1ccccc1 (stereo not given)	0.1	0.74
CC(Cc1ccccc1)C(=O)Nc1ccccc1 (stereo not given)	0.04	1.6
CCN(CC)c1ccc(CN2CCC(C(=O)NCc3ccc(C)cc3)CC2)cc1	3.2	-0.57
CC(C)CC1C(C#N)=C(N)Oc2n[nH]c(-c3ccccc3)c21 (stereo not given)	2	1.6
O=C(O)CSc1nnc(-c2ccc(Cl)cc2Cl)n1Cc1ccccc1	1	0.69
O=C(c1cccc2ccccc12)C1CCCN(C(=O)CCc2cnccn2)C1 (stereo not given)	0.86	1
CCNc1nc(NCC)nc(SCCOC(=O)Nc2ccccc2)n1	0.24	0.67
CCc1ccn2cc(-c3cc(-c4ccccc4)no3)nc2c1	1.7	1.2
O=C(O)CN1CCNCC1	1.1	0.09
Next compounds follow:
SMILES	KCNQ2 pot	KCNQ2 pot baseline
COc1ccc(CC(=O)NCC(=O)N/N=C(/C)c2ccco2)cc1	0.49	0.03
Cn1c(SCC(=O)c2cc3ccccc3o2)nnc1-c1ccccc1	0.34	-0.69
COc1cccc(OCc2nc3ncc(Br)cc3[nH]2)c1	0.15	1.5
Cc1cnc(C(=O)OCC(=O)N(C(C)C)C(C)C)cn1	0.21	1
O=C(O)c1ccc(Nc2nc(-c3ccccc3)c3ccccc3n2)cc1	2.4	-0.55
CCCCCCCn1c(NC(=O)CC)nc2ccccc21	10*	2.8*
CNC(=O)COC(=O)c1cc(=O)[nH]c2ccccc12	0.13	0.65
CSc1ncc(Cl)c(C(=O)C(C#N)c2nc3c(C)cc(C)cc3c(=O)[nH]2)n1 (stereo not given)	2	-1.1
Cc1cccc2cc(CN(CC3CCCO3)C(=O)c3ccco3)c3nnnn3c12 (stereo not given)	0.8	-0.85
COc1cccc(CNC(=O)Cn2ccc3cc(S(=O)(=O)N4CCCCCC4)ccc32)c1OC	0.63	-0.05

Record cards, as listed above. Screens in order: KCNQ2 pot	KCNQ2 pot baseline
Shown for COc1cccc(OCc2nc3ncc(Br)cc3[nH]2)c1 → 0.15	1.5
Shown for COc1ccc(CC(=O)NCC(=O)N/N=C(/C)c2ccco2)cc1 → 0.49	0.03
Shown for Cc1cnc(C(=O)OCC(=O)N(C(C)C)C(C)C)cn1 → 0.21	1
Shown for O=C(O)c1ccc(Nc2nc(-c3ccccc3)c3ccccc3n2)cc1 → 2.4	-0.55
Shown for Cc1cccc2cc(CN(CC3CCCO3)C(=O)c3ccco3)c3nnnn3c12 (stereo not given) → 0.8	-0.85

The listing picks up, repeating the two entries before the break.
SMILES	KCNQ2 pot	KCNQ2 pot baseline
Cc1cccc2cc(CN(CC3CCCO3)C(=O)c3ccco3)c3nnnn3c12 (stereo not given)	0.8	-0.85
COc1cccc(CNC(=O)Cn2ccc3cc(S(=O)(=O)N4CCCCCC4)ccc32)c1OC	0.63	-0.05
CCn1cc(C(=O)Nc2ccc(C)cc2[N+](=O)[O-])c(C)n1	0.66	0.03
Cc1ccc(CNC(=O)CN(c2ccc(Cl)cc2)S(C)(=O)=O)cc1	0.81	0.33
Cc1ccc(-c2nc(CS(=O)CC(=O)NCc3ccc(Cl)cc3)c(C)o2)cc1 (stereo not given)	0.44	0.23
CCOc1ccc(S(=O)(=O)N2CCC(C(=O)N3CCCC3)CC2)cc1C	0.3	3.1
COC(=O)c1ccccc1NC(=O)c1nc2nc(C)cc(C)n2n1	0.07	-0.84
COc1ccc(-c2nnn(CC(=O)N(CCO)C(C(=O)NC3CCCC3)c3ccc(F)cc3)n2)cc1 (stereo not given)	0.21	-0.12
CCOC(=O)N1CCN(S(=O)(=O)c2ccc3c(c2)CCN3C(=O)C2CCC2)CC1	1.2	0.31
CC(Nc1n[nH]c(=S)[nH]c1=O)C(=O)OCc1ccccc1 (stereo not given)	1.4	-0.62
CCn1nc(NC(=O)c2cccnc2)c2cc3cccc(C)c3nc21	2.9	-1.3
COC(=O)C1=C(C)NC(=O)NC1c1ccsc1 (stereo not given)	2.3	-0.86
CC(C)Oc1ccc(/C(O)=C2/C(=O)C(=O)N(CCN3CCOCC3)C2c2ccccc2)cc1 (stereo not given)	0.83	-1.9
Cc1occc1C(=O)n1nnc2ccccc21	2.4	-0.05
CC#CCN(Cc1ccco1)C(=O)c1ccc(OC2CCN(Cc3ccccn3)CC2)cc1	0.02	-0.03
COCCN1CC(=O)N2C(c3cccc(C)c3)c3[nH]c4ccccc4c3C[C@H]2C1=O (stereo not given in full)	0.26	-0.97
COc1ccc(NC(=O)c2[nH]c(C)c(C(C)=O)c2C)cc1Cl	0.87	1.3
COCCN(CC(=O)NCc1ccccc1)C(=O)CCC(=O)Nc1ccccn1	1.2	-2
NC(=O)CC(NC(=O)Cc1ccc(Br)cc1)c1ccc(NCC2CC2)c([N+](=O)[O-])c1 (stereo not given)	4.8	0.16
Cc1cc(O)c(S(=O)(=O)c2ccccc2)c(C)c1NS(=O)(=O)c1ccccc1	0.47	0.01
COc1cccc(C(=O)NC2CC3CCCC(C2)N3Cc2ccc(C)cc2)c1 (stereo not given)	0.56	2
CC(=O)Nc1ccc(NC(=O)C(C)OC(=O)CCCOc2ccc(Cl)cc2C)cc1 (stereo not given)	1.4	0
Cc1ccccc1NCC(=O)N/N=C/C(Br)=C/c1ccccc1	1.8	0.3
COc1cccc(CC2(CO)CCCN(Cc3cc4ccccc4[nH]3)C2)c1 (stereo not given)	1.3	-2.2
O=C(O)[C@]1(S(=O)(=O)c2ccccc2)C[C@@H]2ON=C(c3cccc(Br)c3)[C@@H]2C1	2.1	-0.9
O=C(Nc1cc(Cl)ccc1-n1cncn1)c1cn2ccccc2n1	0.44	0.48
Cc1cc(OC(C)C(=O)Nc2cccnc2)ccc1Cl (stereo not given)	2.7	-1.9
COc1cc(C2NC(=O)NC(C)=C2C(C)=O)cc(OC)c1OC (stereo not given)	0.87	-0.02
CCCSCCCNC(=O)c1ccc(NC(=O)C2=CSCCO2)cc1	0.18	-0.18
CCOC(=O)C1CCCN(C(=O)c2cccc(S(=O)(=O)N3CCOCC3)c2)C1 (stereo not given)	0.08	-0.09
COc1ccc(C2CC(=O)C=C(O)C2)cc1 (stereo not given)	1.3	0.26
COc1cccc(C(=O)NC23CC4CC(CC(C4)C2)C3)c1	0.94	0.06

Ordered by molecular weight (low to high): some entries from above
SMILES	KCNQ2 pot	KCNQ2 pot baseline
O=C(O)CN1CCNCC1	1.1	0.09
CC(Cc1ccccc1)C(=O)Nc1ccccc1 (stereo not given)	0.04	1.6
CN(C)c1ccc(NC(=O)c2cnsn2)cc1	0.41	-0.06
CC1CCN(c2c(NCC3CCC(C(=O)NCCc4ccccc4)CC3)c(=O)c2=O)CC1 (stereo not given)	0.42	1.3

(further entries)
SMILES	KCNQ2 pot	KCNQ2 pot baseline
CC(=O)OC1C([N+]2(C)CCCCC2)C[C@H]2C3CC[C@H]4C[C@H](OC(C)=O)C([N+]5(C)CCCCC5)CC4(C)[C@H]3CCC12C (stereo not given in full)	2.9	-1.9
Cc1ccc(CC2S/C(=C(/C#N)C(=O)NCc3ccco3)N(c3ccccc3)C2=O)cc1 (stereo not given)	0.57	1.3
CN(C)CCCn1c(NC(=O)C2CCCCC2)nc2ccccc21	0.81	-0.05
COc1ccc(C2=NOC(C(=O)Nc3ccc(C)cc3)C2)cc1OC (stereo not given)	1.2	0.99
CC(C)CC(CO)N1CCN(C(=O)c2ccc(Cl)c(Cl)c2)CCC1=O (stereo not given)	1	1.1
CCOC(=O)c1c(C)[nH]sc1=S	2.6	1.5
COc1ccc(-c2csc3ncn(-c4cccc(C)c4)c(=O)c23)cc1OC	0.59	-2.4
CCCCn1nc2cc(C(=O)NCC3CC3)ccc2c1OCC	2.5	0.71
O=C(CCC1CCCCC1)NCCS(=O)(=O)N1CCN(c2ccc(F)cc2)CC1	0.44	0.15
Cc1ccc(C(=O)NNC(=O)CNc2cccc(Cl)c2)cc1	4.7	-0.37
Cc1ccc(S(=O)(=O)c2cc3c(=O)n4ccccc4nc3n(C)c2=N)cc1	1.1	0.26
CCn1cc(CN2CCC(n3nccc3NC(=O)c3cccc(F)c3)CC2)c(C)n1	0.22	0.06
CCOC(=O)N1CCN(S(=O)(=O)c2ccc(C)cc2)C1	0.68	-0.25
CCCCn1c(-c2csc(CC)c2)n[nH]c1=S	1.9	1.3
CC1CCc2cc(F)ccc2N1S(=O)(=O)c1ccc(Cl)nc1 (stereo not given)	1.4	-1.6
COC(=O)C(C#N)C(=C1C(=O)CC(C)(C)CC1=O)c1ccc(O)cc1 (stereo not given)	0.99	1.2
O=C(O)c1ccc(/C=C/c2nc3sc4c(c3c(=O)[nH]2)CCC4)cc1	0.98	-1.6
O=C(CCCCCNC(=O)N1CCn2c1nc1ccccc12)N[C@H](C(=O)O)c1ccccc1	0.35	0.67
COc1cc(C(=O)NC(=S)Nc2cccc(-c3cc4ccccc4oc3=O)c2)cc(OC)c1OC	0.61	-1.3
OCCCCNCc1ccc(OCc2ccccc2Cl)cc1	0.15	2.6
